High-throughput results as filed in PubChem BioAssay.
VACV mCherry inh: qHTS for Stage-Specific Inhibitors of Vaccinia Orthopoxvirus: mCherry Reporter Primary qHTS; Vaccinia virus mCherry reporter infection, fluorescence; about a quarter of the inactives have no number; Potency, µM (titrated, usually from 36.5 µM), inactives show top-dose activity change, negative = inhibition, actives largely listed as inhibitors; actives 0.63% (n = 310,000); AID 720579, 2013; active = well fitted inhibition curve with a large enough effect; inconclusive = small, poorly fitted or top-dose-only effect; inactive = no such curve, though single readings can be large or run the other way; tested in A549 cells; further: nearly all actives have a fitted effect of over 35% in size; inactives centre near -10
Vaccinia Venus: qHTS for Stage-Specific Inhibitors of Vaccinia Orthopoxvirus: Venus Reporter Primary qHTS. Vaccinia virus Venus reporter expression, fluorescence. Potency, µM (titrated, usually from 36.5 µM), inactives show at the top dose activity change, negative = inhibition, usual class: inhibitors. AID 720580, 2013. actives 0.46% (n = 330,000); active means well fitted inhibition curve with a large enough effect; inconclusive means small, poorly fitted or top-dose-only effect; inactive means no such curve, though single readings can be large or run the other way; tested in A549 cells; further: nearly all actives have a fitted effect of over 30% in size; inactives centre near -10
Numbers without * were called inactive; i = inactive; ? = inconclusive; · = not tested or not shown; & = joins results of further samples; [ ] = another dose, or the depositor's remark. On the % scale 0 is the no-effect control and ±100 the full control effect; potency means the concentration at half of the fitted maximal effect.

molecule,VACV mCherry inh,Vaccinia Venus
Cc1ccc(CNC(=O)C2(S(=O)(=O)c3ccccc3)CC=CC2)cc1,i,-15%
CCn1c(SCC(=O)Nc2c(C#N)cnn2-c2ccccc2)nnc1-c1cccs1,-3%,-10%
Cc1cccc(N2CCN(C(=O)CCS(=O)(=O)c3ccc(Br)cc3)CC2C)c1 (centres undefined),-17%,-12%
O/C(=C\c1ccc2ccccc2n1)c1ccc(O)cc1O,-11%,4%
O=c1c(-c2nn[nH]n2)coc2ccc(Cl)cc12,-17%,1%
CCCn1c2ccccc2c2cnn(CC(=O)NCCc3ccccc3)c(=O)c21,-16%,-12%
O=C1C2(Cl)C3(Cl)C4(Cl)C(Cl)(Cl)C5(Cl)C3(Cl)C1(Cl)C5(Cl)C24Cl (centres undefined),-29%,?
CCCCC(c1nc2ccccc2[nH]1)N(C(=O)c1ccccc1)c1ccccc1[N+](=O)[O-] (centres undefined),i,12%
Cc1ccc(-c2cc(=O)[nH]c(NCc3ccccc3)n2)cc1,-27%,-13%
CCOc1ccc2cc(C(=O)c3ccccc3)c(=O)oc2c1,-13%,-7%
CC(C)CCN1CCC(CN2CCNC(=O)C2=O)CC1,i,2%
Cc1ccc(C(=O)N2CCN(c3ccc(NC(=O)c4cccnc4Cl)cc3)CC2)cc1,-19%,5%
COc1ccc(CCNC(=O)CCCn2c(=O)c3ccccc3n(Cc3ccccc3)c2=O)cc1OC,-9%,-9%
COc1ccc2ccccc2c1/C=N/NC(=S)NCCN1CCOCC1,-25%,-14%
COc1ccc(N2CCN(C(=O)CSc3nc4c(c(=O)n(C)c(=O)n4C)n3C(C)C)CC2)cc1,0%,-5%
CC(=O)C1=CCC(c2ccccc2)N(S(=O)(=O)c2ccc(C)cc2)C1 (centres undefined),i,-14%
CN(C)S(=O)(=O)c1ccc(C(=O)/C=C/c2cccnc2)cc1,-13%,-5%
COc1cc(C(=O)Nc2ccc(NC(=O)c3ccccc3Cl)nc2)cc(OC)c1OC,-25%,-11%
ClCCN(CCCl)c1ccc(-n2cnc3c(Cl)ncnc32)cc1,-9%,-2%
COC(=O)[C@@]12C[C@@H](CC(=O)NCc3ccc(OC)c(OC)c3)C(=O)N(Cc3ccco3)C1=CCC(C)(C)C2,-8%,-14%
CCc1nc(SCC(=O)Nc2cc(C)on2)c2c(=O)n(C)c(=O)n(C)c2n1,-6%,-2%
CN1CCC(OC(=O)c2ccccc2Cl)CC1,i,-4%
O=[N+]([O-])c1cc(C(F)(F)F)cc([N+](=O)[O-])c1NCc1cccnc1,i,-19%
CC(C)CCC(C)NC(=O)Cc1ccc(S(=O)(=O)N2CCOCC2)s1 (centres undefined),-26%,-18%
O=C(NCC1CCC2(CCN(Cc3cc4ccccc4o3)CC2)O1)c1ccccc1 (centres undefined),-5%,-1%
CCC(=O)Nc1ccc(NC(=O)CSc2nnc(-c3ccco3)n2CC)cc1,4%,3%
CNc1nc(C)nc(N/N=C/c2ccccc2)n1,i,-11%
COc1ccc(OC)c(C(=O)N2CCOc3ccc(C(C)(O)CN(C)C)cc3C2)c1 (centres undefined),-11%,-6%
COc1ccc(C)cc1NC(=O)NNC(=O)c1ccoc1C,-5%,1%
COc1cccc(CN2CCNC(=O)C2CC(=O)NCCc2ccccn2)c1 (centres undefined),i,3%
COc1ccc(/C=N/NC(=O)c2ccc(NC(=O)C3CCCCC3)cc2)cc1O,-27%,-19%
CCOCCOc1nc2c(c(=O)n(C)c(=O)n2C)n1Cc1ccc(C)cc1,-23%,-16%
CC1Cc2nc(SCC(=O)NCC3CCCO3)n(-c3ccccc3)c(=O)c2S1 (centres undefined),i,0%
CCOC(=O)C1CCN(c2c(NCc3ccc(C(=O)NC(C)CC)cc3)c(=O)c2=O)CC1 (centres undefined),·,-2%
CC(=O)Nc1ccc(NCc2nnc3n2CCCCC3)cc1,-8%,1%
O=C(COc1ccc2c3c(c(=O)oc2c1)CCC3)NC(Cc1ccc(Cl)cc1)C(=O)O (centres undefined),-8%,-5%
O=C(Cn1ncc2c(=O)oc3ccccc3c21)N1CCc2ccccc2C1,i,-2%
O=C1Nc2ccccc2C1Cc1ccc(Br)cc1 (centres undefined),-2%,-14%
CCN(CC)CCCNC(=O)CSc1nc(C)cc(C)n1,-12%,-11%
CN(C)S(=O)(=O)c1ccc(N2CCCC2)c(C(=O)NC2CCC(O)CC2)c1 (centres undefined),i,-10%
NC(=S)NN=C1CCCCCCCC1,?,?
COc1ccc(C(C)C)cc1S(=O)(=O)NCCc1c(C)[nH]c2c(Cl)cccc12,-23%,-22%
NC(=S)NNc1cc(Cl)cc(Cl)c1,-6%,-8%
COc1ccc(S(=O)(=O)NCC2CCCN(C(=O)C=C(C)C)C2)cc1 (centres undefined),-13%,-2%
Nc1c(C(=O)NC2CCCC2)c2nc3ccccc3nc2n1/N=C/c1cccnc1,4%,-13%
COc1ccc(/C=C(/C#N)c2nc(-c3ccc(-c4ccccc4)cc3)cs2)cc1,-3%,1%
CC(C)Cc1ccc(CN2CCCC(NC(=O)c3ccnn3C)C2)cc1 (centres undefined),-4%,-22%
C[C@H]1C=C(C(=O)NCc2nc3ccccc3[nH]2)O[C@@H](OCc2ccc(CO)cc2)C1,i,-2%
C[C@@H]1CN([C@@H](C)CO)C(=O)c2cc(NC(=O)Nc3ccccc3)ccc2O[C@@H](C)CCCCO[C@H]1CN(C)C(=O)Nc1ccc(C(F)(F)F)cc1,-5%,-14%
COC(=O)C(Cc1ccc(N(CCCl)CCCl)cc1)N=Cc1ccccc1O (centres undefined),-23%,?
CCOC(=O)c1oc2cc(O)cc(C)c2c1C,?,-22%
O=C(CSc1nnc(NC(=O)c2c(F)cccc2F)s1)NCc1ccc(F)cc1,-17%,-8%
O=C(CSc1nnc(-c2ccccc2Br)o1)N1CCOCC1,4%,-20%
Cn1c(=O)c2cc(NC(=O)CCc3ccc4c(c3)OCO4)ccc2n1Cc1ccc(F)cc1,i,-11%
O=C1CC[C@@H]2CC3(C[C@@H]4CCN1[C@H]24)Nc1cc(Cl)ccc1NC3=NC1CCCCC1 (some centres undefined),?,-22%
C[C@H](CO)N1C[C@H](C)[C@@H](CN(C)S(=O)(=O)c2cn(C)cn2)OCc2cn(nn2)CCCC1=O,0%,-7%

More structures follow.
molecule,VACV mCherry inh,Vaccinia Venus
CC1(Cc2cc(Cl)ccc2C(F)(F)F)C(=O)Nc2ccc(S(=O)(=O)NC3CCCCC3)cc21 (centres undefined),-7%,-12%
CCCCNC(=O)C[C@@H]1C[C@@]2(C(=O)OC)CCCCC=C2N(CCc2ccc(OC)c(OC)c2)C1=O,-2%,-16%
COc1cccc(CN2CC(C(=O)NCCc3ccc(C)s3)CCC2=O)c1 (centres undefined),-14%,-3%
Cc1nnc(SCC(=O)NC2CCCC2)n1CCc1ccccc1,-8%,-6%
Cc1cc(C)c(C(=O)COC(=O)C2CC3CCCC(C2)C3=O)c(C)c1 (centres undefined),-19%,-13%
CN(C)c1ccc2nsnc2c1[N+](=O)[O-],-27%,-16%
O=C1CN(C(=O)COC(=O)CCS(=O)(=O)c2ccccc2)c2ccccc2N1,-9%,-6%
Cn1c(C(=O)N(Cc2ccccc2)Cc2cccs2)cc2sccc21,-6%,5%
CC1=CN2C(=N)/C(=C/c3ccc(C)o3)C(=O)N=C2S1,-12%,-12%
COc1ccc(C/C(C)=N/NC(=O)c2ccncc2)cc1,-5%,11%
CCCCOC(=O)Nc1ccc(S(=O)(=O)Nc2nccs2)cc1,-10%,-6%
O=C(COC(=O)COc1ccc(Br)cc1)NC1CCS(=O)(=O)C1 (centres undefined),i,-2%
CCCCn1c(O)c(N=NC(=O)c2ccncc2)c2cc(Br)ccc21,-28%,15%
CCOc1ccc(CCNC(=O)c2[nH]c(C)c(C(C)=O)c2C)cc1OCC,-11%,-18%
O=C(C1CC=CCC1)N1CCN(S(=O)(=O)c2ccc(F)cc2)CC1 (centres undefined),i,-17%
C(=Cc1c[nH]c2ccccc12)c1nccc2ccccc12,?,44%[activator]
O=C(N[C@@H]1C/C=C\C[C@@H](CC(=O)N(CCO)Cc2ccccc2)C(=O)NCCOC1=O)OCC1c2ccccc2-c2ccccc21,-1%,-21%
CCc1ccc2c(c1)NC(=O)C2(C)Cc1ccc(F)cc1 (centres undefined),13%,3%
C[C@]12C(=O)N(c3ccc(Cl)cc3)C(=O)N1[C@@H]1c3ccccc3OC[C@@H]1[C@H]2c1ccccc1,i,-17%
CCCCCCOC(=O)C(C#N)c1nc2ccccc2nc1N1CCN(CC)CC1 (centres undefined),i,-13%
Cc1cccc(Nc2nnc(SC/C(O)=C(\C#N)c3nc4ccccc4[nH]3)s2)c1C,-2%,-6%
CCCN1C2CCCC1CC(NC(=O)c1ccccc1OC)C2 (centres undefined),i,-21%
CC(OC(=O)CCNS(=O)(=O)c1ccccc1)C(=O)Nc1ccc(S(=O)(=O)N2CCCCC2)cc1 (centres undefined),-21%,-15%
O=c1oc2ccccc2cc1-c1cn2cc(Cc3ccc(Cl)cc3)sc2n1,-26%,-22%

5 entries picked at random from those above, as already listed:
molecule,VACV mCherry inh,Vaccinia Venus
CCCCCCOC(=O)C(C#N)c1nc2ccccc2nc1N1CCN(CC)CC1 (centres undefined),i,-13%
C[C@]12C(=O)N(c3ccc(Cl)cc3)C(=O)N1[C@@H]1c3ccccc3OC[C@@H]1[C@H]2c1ccccc1,i,-17%
O=C(N[C@@H]1C/C=C\C[C@@H](CC(=O)N(CCO)Cc2ccccc2)C(=O)NCCOC1=O)OCC1c2ccccc2-c2ccccc21,-1%,-21%
CCCN1C2CCCC1CC(NC(=O)c1ccccc1OC)C2 (centres undefined),i,-21%
CCc1ccc2c(c1)NC(=O)C2(C)Cc1ccc(F)cc1 (centres undefined),13%,3%

(list continues)
molecule,VACV mCherry inh,Vaccinia Venus
O=C(Nc1ccc(Cl)cc1)c1csc([C@@H]2O[C@H](CO)[C@H](O)[C@H](O)[C@H]2O)n1,19%,2%
Cc1ccccc1NC(=O)Cn1nnc(C(=O)NCc2cccs2)c1N,-15%,-11%
COC(=O)c1cccc(-c2ccc(C(c3c(C)[nH][nH]c3=O)c3c(C)[nH][nH]c3=O)o2)c1,1%,-3%
CCc1nnc(NS(=O)(=O)c2ccc(NC(=S)NC(=O)/C=C/c3ccccc3)cc2)s1,-17%,-5%
Cc1ccc(/C=C/c2nc3ccccc3s2)s1,-7%,-6%
CC(C)C[C@@H](CO)N1CCN(CCCc2ccccc2)CCC1=O,-8%,-8%
O=C1C(Cc2cccc([N+](=O)[O-])c2)S/C(=N/N=C/c2ccco2)N1c1ccccc1 (centres undefined),-9%,-2%
Cc1cc(C)n(C(=O)CNC(=O)Cc2ccccc2)n1,-15%,-1%
Cc1cccn2c(=O)c3c(nc12)N1CCCCCC1C1(C3)C(=O)N(C)C(=O)N(C)C1=O (centres undefined),-1%,-20%
C1CCN2C[C@H]3C[C@H](CN4CCCCC34)C2C1 (some centres undefined),-17%&-12%,-10%&-11%
COC(=O)[C@@H]1N=C(c2ccc(OC)cc2)O[C@]12C(=O)N(Cc1ccccc1)c1ccccc12,23%,-8%
COc1ccc(-n2cnc3cc(C(=O)NC4CCCC4)ccc32)cc1,-4%,-6%
COc1cccc(CNC(=O)c2n[nH]c3ccccc23)c1,i,-15%
CCCCNC(=O)CSc1nc2cc3c(cc2c(=O)n1CCCCCC(=O)NCc1ccc(OC)cc1)OCO3,-10%,-12%
O=c1[nH]c(=O)n(-c2ccc(Cl)cc2)c(O)c1C=Nc1ccc(S(=O)(=O)Nc2nccs2)cc1,i,-6%
Cc1ccccc1C(=O)N1CCc2ccccc2C1,i,-4%
CCC(C)NC(=O)C1c2ccccc2C(=O)N1Cc1ccccc1 (centres undefined),i,-12%
Cc1ccc(C(=O)C(C)OC(=O)c2cc3cc([N+](=O)[O-])ccc3oc2=O)cc1 (centres undefined),-19%,-5%
Cc1ccc(C2/C(=C(/O)c3ccc(Cl)cc3)C(=O)C(=O)N2CC2CCCO2)o1 (centres undefined),·,4%
CCOC(=O)c1nc2c(=O)n(C)c(=O)n(C)c2n(C)c1=O,-6%[7.34 µM],-13%[7.34 µM]
CCS(=O)(=O)N1Cc2ccccc2CC1C(=O)Nc1ccccc1OC (centres undefined),-7%,7%
COC(=O)Nc1ccc(OCC(=O)N2CCOCC2)cc1,-14%,-8%
CCCCNC(=O)C[C@@H]1C[C@@]2(C(=O)OC)CC(C)(C)CC=C2N(Cc2ccco2)C1=O,-30%,-17%
Cc1ccsc1CN(C)CC(=O)Nc1cccc(S(=O)(=O)N(C)c2ccccc2)c1,-3%,-21%
COc1cccc(CN(Cc2ccccc2F)S(=O)(=O)c2ccc(S(=O)(=O)NCc3ccccc3)cc2)c1,-21%,-5%
CCOC(=O)N1CCN(C(=O)COc2ccc(Cl)cc2)CC1,-14%,-9%
O=C(NCCN1CCOCC1)c1ccc2c(c1)ncn2C1CCCCC1,i,-3%
